From PubChem
VCAM-1 inhibition: inhibitors of TNFa-induced VCAM-1 surface display, cell-based, plate reader, pooled HUVEC, TNFa stimulus (AID 454); HUVEC TNFa-induced VCAM-1 surface immunofluorescence, plate reader; numbers were filed only for top-ranked candidate wells; inhibition, % at 5 µM; 0.2% of 10,000 active;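 active = compound among top-ranked inhibitors of TNF-induced VCAM-1 adhesion protein staining, with the hit upheld by image or statistical review; inactive = the rest, including hits rejected on review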;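 note: 0% = TNFa with vehicle and 100% = cells without TNFa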
VCAM-1 imaging: inhibitors of TNFa-induced VCAM-1 surface display, imaging, high-content imaging, pooled HUVEC, TNFa stimulus (AID 456) | HUVEC TNFa-induced VCAM-1 surface expression, immunofluorescence imaging; numbers were filed only for top-ranked candidate wells | one-dose inhibition, % at 5 µM; IC50 in µM for titrated hits | 0.2% of 10,000 active;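 active = top tenth filtered wells with inhibition above zero that passed visual or statistical confirmation; inactive = the rest, including hits rejected on review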;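 note: 0% = stimulated vehicle wells and 100% = unstimulated cells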
FPRL1 ligand: ligands of human FPRL1, also counter-screen for FPR ligands; FPRL1-expressing cells, fluorescent ligand binding inhibition, flow cytometry; inhibition, %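 (tested at 6.7 µM)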; 0.3% of 24,000 active;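 note: 0% = buffer alone and 100% = receptor blocker peptide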
Target sequence (P25090 whole entry, looked up): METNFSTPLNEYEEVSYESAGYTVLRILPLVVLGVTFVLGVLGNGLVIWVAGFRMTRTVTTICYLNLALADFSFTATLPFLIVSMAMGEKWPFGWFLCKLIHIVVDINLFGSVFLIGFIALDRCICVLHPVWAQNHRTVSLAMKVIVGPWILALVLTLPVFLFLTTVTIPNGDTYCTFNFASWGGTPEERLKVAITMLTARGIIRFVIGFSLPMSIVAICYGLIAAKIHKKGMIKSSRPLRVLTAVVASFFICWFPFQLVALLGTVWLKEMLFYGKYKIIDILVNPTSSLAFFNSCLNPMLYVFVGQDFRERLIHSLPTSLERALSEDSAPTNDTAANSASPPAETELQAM
VCAM-1 up imaging: boosters of cytokine-driven VCAM-1 levels – imaging, high-content imaging, pooled HUVEC, TNFa stimulus (AID 457) | Pooled HUVEC, TNFa-induced VCAM-1 immunofluorescence imaging; hits of this screen are not shown here | 0.2% of 10,000 active | calls only;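 active = a top-ranked rise in VCAM-1 staining upheld on image or statistical review; inactive = the rest, including candidates rejected on review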;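 note: compounds tested at 5 µM in the well; cells exposed to compound for 24 hours before fixing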
FPR binder: ligands of human FPR, also counter-screen for FPRL1 ligands; 0.74% of 24,000 active; P21462; FPR-expressing cells, fluorescent ligand binding, flow cytometry; inhibition, %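 (tested at 6.7 µM)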;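 note: 0% = buffer wells and 100% = receptor blocker peptide wells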
Target sequence (P21462 whole entry, looked up): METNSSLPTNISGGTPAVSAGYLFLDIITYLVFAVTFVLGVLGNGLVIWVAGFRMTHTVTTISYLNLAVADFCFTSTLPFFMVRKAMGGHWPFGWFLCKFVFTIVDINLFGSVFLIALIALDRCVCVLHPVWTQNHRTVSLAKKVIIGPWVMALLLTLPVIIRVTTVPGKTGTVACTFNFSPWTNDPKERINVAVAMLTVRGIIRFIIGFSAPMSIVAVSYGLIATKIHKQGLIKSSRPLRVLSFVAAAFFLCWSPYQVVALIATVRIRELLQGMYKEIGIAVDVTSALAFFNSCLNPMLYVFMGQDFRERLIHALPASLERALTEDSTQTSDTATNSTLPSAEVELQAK
* hit, by the source's call; i = inactive; nt = no result given.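 Rule for the calls, unless noted: active = mean above 30%; inconclusive = self-fluorescent; inactive = the rest.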 An excerpt; count on the stated rates, not on these rows.

The line under a structure holds: VCAM-1 inhibition	VCAM-1 imaging	FPRL1 ligand	VCAM-1 up imaging	FPR binder
1. O=C(CC(NS(=O)(=O)c1ccc(Cl)cc1)c1ccco1)NCc1cccnc1 (centres undefined)
  nt	nt	-5	nt	2
2. CN(C)S(=O)(=O)c1ccc(C(=O)N2CCN=C2SCc2cccnc2)cc1
  nt	nt	-5	nt	-3
3. Cn1c(=O)cc(OCC(=O)N2CCCc3ccccc32)c2ccccc21
  nt	nt	-5	nt	0
4. COC(=O)c1cnn(C(=O)c2cc(OC)ccc2Br)c1N
  nt	nt	-3	nt	-4
5. COc1cccc(C2CC(c3ccccc3C)n3nc(N)nc3N2)c1 (centres undefined)
  nt	nt	3	nt	1
6. COC(=O)C1=C(C)N=c2s/c(=C/c3cccs3)c(=O)n2C1c1cccs1 (centres undefined)
  nt	nt	0	nt	-1
7. CC(=O)Nc1ccc(OC(=O)c2cccs2)cc1
  i	i	-6	i	-1
8. CCOC(=O)N1CCN(C(=O)C(NC(=O)C2CCC(C)CC2)C(C)C)CC1 (centres undefined)
  nt	nt	2	nt	8
9. N#C/C=C\Oc1ccc(Cl)cc1N
  nt	nt	5	nt	-5
10. Cc1ccc(C2CC(c3cccc(Cl)c3)n3nc(N)nc3N2)cc1 (centres undefined)
  nt	nt	7	nt	7
11. COc1cc(OC)cc(-c2nc3nc(C)c(CCC(=O)NCc4ccco4)c(C)n3n2)c1
  nt	nt	3	nt	6
12. CC1C(=O)C(C)C(c2ccc3c(c2)OCO3)NC1c1ccc2c(c1)OCO2 (centres undefined)
  nt	nt	6	nt	2
13. CCOC(=O)c1oc2ccccc2c1NC(=O)c1ccc(S(=O)(=O)N(C)C)cc1
  nt	nt	-4	nt	-1
14. CCCCc1cc(=O)oc2c(CN3CCCC3)c(O)c(Cl)cc12
  i	i	-2	i	0
15. CCOc1ccc(Cn2nnc(C(=O)Nc3cc(C)cc(C)c3)c2N)cc1
  i	i	-4	i	-25
16. O=c1oc2cc(O)ccc2c2oc3cc(O)ccc3c12
  i	i	4	i	4
17. CCOC(=O)CCc1c(C)nc2cc(-c3ccccc3OC)[nH]n2c1=O
  nt	nt	-1	nt	5
18. O=C1C2CCCN2C(c2ccc(F)cc2)N1c1ccc(Cl)cc1 (centres undefined)
  nt	nt	-6	nt	-2
19. CCN(CC)Cc1nc2c(c(=O)[nH]1)C1(CCCCC1)Cc1ccccc1-2
  i	i	-4	i	-8
20. CCOC(=O)C1CCN(C(=O)CCn2c(=O)[nH]c3ccccc3c2=O)CC1
  nt	nt	4	nt	-1
21. COc1ccc(CCN2C(=O)c3cccnc3C2=O)cc1OC
  nt	nt	0	nt	2
22. Cc1cccc(C)c1NC(=O)C1(N2CCN(C(=O)c3ccco3)CC2)CCCCC1
  nt	nt	-10	nt	-10
23. CCCS(=O)(=O)N1CCCC(C(=O)N2CCN(c3ccccc3)CC2)C1 (centres undefined)
  nt	nt	5	nt	4
24. Cn1c(SCC(=O)O)nnc1C1CCCCC1
  i	i	0	i	-5
25. Cc1cc(NS(=O)(=O)Cc2ccccc2)cc(C)c1OCC(=O)N1CCOCC1
  i	i	-5	i	-7
26. COC(=O)c1cc2oc(C)cc2n1CC(=O)Nc1ccc(OC)c(OC)c1OC
  nt	nt	-9	nt	4
27. Cc1nc(SC2C=CS(=O)(=O)C2)n[nH]1 (centres undefined)
  i	i	4	i	-2
28. CC(C)(C)c1cnnn1-c1ccc(NC(=O)c2ccc(Br)o2)cc1
  nt	nt	1	nt	-1
29. N#CC1=C2SCN(c3ccc(F)cc3)CN2C(=O)CC1c1cccc(F)c1 (centres undefined)
  nt	nt	0	nt	15
30. CCCN1C(=O)c2ccccc2NC1c1ccc(OC)cc1O (centres undefined)
  nt	nt	3	nt	2
31. Cn1c(SCc2nc3ccccc3n2CCO)nc2ccccc21
  nt	nt	-6	nt	-10
32. CCOC(=O)N1CCC(NC(=O)c2cc(S(=O)(=O)N3CCOCC3)ccc2F)CC1
  nt	nt	-6	nt	-4
33. Cc1[nH]c(=O)[nH]c(=O)c1S(=O)(=O)N1CCCC(C(=O)N2CCC(Cc3ccccc3)CC2)C1 (centres undefined)
  nt	nt	-1	nt	4
34. CCOC(=O)C1CCCN(C(=O)c2ccc3c(=O)n(CCOC)c(=S)[nH]c3c2)C1 (centres undefined)
  i	i	-1	i	3
35. CCN(CC)CC(=O)Nc1ccc2c(c1)Nc1ccccc1CC2
  nt	nt	0	nt	-5
36. CCCCNC(=O)C1CCN(S(=O)(=O)c2cnc[nH]2)CC1
  nt	nt	3	nt	-4
37. O=S(=O)(c1cccs1)N1CCN(C/C=C/c2ccccc2)CC1
  i	i	3	i	-5
38. CS(=O)(=O)N(CC(=O)NC1CC1)c1cccc(F)c1
  i	i	1	i	-2
39. CCOC(=O)c1ccc(NC(=O)Cn2nnc(-c3ccccc3)n2)cc1
  nt	nt	-4	nt	-4
40. O=S(=O)(c1ccc(OCC(O)CN2CCN(c3ccccc3)CC2)cc1)N1CCOCC1 (centres undefined)
  i	i	-4	i	3

Given as a markdown table: entries from further up.
| nr | structure | VCAM-1 inhibition | VCAM-1 imaging | FPRL1 ligand | VCAM-1 up imaging | FPR binder |
| --- | --- | --- | --- | --- | --- | --- |
| 21 | COc1ccc(CCN2C(=O)c3cccnc3C2=O)cc1OC | nt | nt | 0 | nt | 2 |
| 22 | Cc1cccc(C)c1NC(=O)C1(N2CCN(C(=O)c3ccco3)CC2)CCCCC1 | nt | nt | -10 | nt | -10 |

(next part)
The line under a structure holds: VCAM-1 inhibition	VCAM-1 imaging	FPRL1 ligand	VCAM-1 up imaging	FPR binder
41. O=C(O)Cn1nnc(-c2cccs2)n1
  nt	nt	2	nt	6
42. O=C(Nc1nc(-c2ccccn2)cs1)C1CC1
  i	i	-1	i	-16
43. Cc1ccc(-c2noc(CCC(=O)N(C)c3ccccc3C)n2)cc1
  nt	nt	-5	nt	-1
44. COc1cc2c(cc1OC)C(/C(C#N)=N\O)=NC(C)(C)C2
  i	i	-2	i	0
45. N#Cc1c(-c2ccc(Cl)cc2Cl)nc2n(c1=O)CCS2
  nt	nt	-6	nt	-1
46. CC(C)(C)C(=O)Cn1c(=N)n(Cc2ccccc2)c2ccccc21
  i	i	0	i	1
47. COc1ccccc1C(=O)NCCn1cc(SCC(=O)Nc2cc(C)on2)c2ccccc21
  nt	nt	-5	nt	4
48. Cc1[nH]n(-c2ccccc2)c(=O)c1/C=N/c1ccccn1
  nt	nt	0	nt	-4
49. CCOC(=O)c1[nH]c(C)c(C(=O)N(CC)CC)c1C
  nt	nt	0	nt	2
50. CCc1nn(CC(=O)N2CCN(Cc3ccc4c(c3)OCO4)CC2)c(=O)c2cc3occc3n12
  i	i	-6	i	-5
51. COc1ccc(C(=O)NCc2cn3ccccc3n2)cc1
  nt	nt	2	nt	2
52. CCOC(=O)c1ccc(NCc2nc3ccccc3[nH]2)cc1
  i	i	3	i	2
53. CN1CCN(C(=O)c2ccc(CS(=O)(=O)c3c(Cl)cccc3Cl)o2)CC1
  i	i	0	i	-4
54. COc1ccc(C2=NOC(C(=O)Nc3cc(Br)ccc3O)C2)cc1OC (centres undefined)
  i	i	-5	i	-7
55. CCN(CC(F)(F)C(F)F)S(=O)(=O)c1ccc(NC(=O)OC)cc1
  nt	nt	-2	nt	-6
56. O=C(Oc1cccc2cccnc12)c1cccc(-n2cnnn2)c1
  i	i	-1	i	-8
57. COc1ccc(C2CCCN2C(=O)c2cccs2)cc1 (centres undefined)
  nt	nt	-6	nt	-2
58. COc1ccc(/C=N/n2cc(-c3ccc(OC)cc3)nc2N)cc1
  i	i	-2	i	-1
59. CCC1SC2=NC(C)=C(C(=O)OC)C(c3ccc(C)cc3)N2C1=O (centres undefined)
  i	i	-3	i	-6
60. O=C(NCc1ccco1)c1cnc2n(c1=O)CCS2
  i	i	-1	i	-2
61. Cc1noc(C)c1S(=O)(=O)Nc1ccc(C(=O)NC2CCCCC2C)cc1 (centres undefined)
  nt	nt	2	nt	1
62. CCCS(=O)(=O)N1CCCC(C(=O)NCc2ccc(C)cc2)C1 (centres undefined)
  nt	nt	6	nt	4
63. COc1cccc(NC(=O)CSc2nnnn2C(C)C)c1
  i	i	7	i	5
64. CC(C)N(CCc1ccncc1)C(=O)Nc1ccc(F)cc1
  nt	nt	6	nt	2
65. Cc1ccc(S(=O)(=O)N2CCN(C(=O)N3CCOCC3)C2C)cc1 (centres undefined)
  i	i	0	i	-1
66. O=C(NCN1CCCCC1)c1cnccn1
  i	i	-5	i	0
67. CC1CCCCC1NC(=O)C1CCN(S(=O)(=O)c2ccc3c(c2)CCC(=O)N3)CC1 (centres undefined)
  nt	nt	0	nt	1
68. Cc1cc(=S)[nH]c2ccccc12
  nt	nt	1	nt	-4
69. CCC(=O)N1CCCc2cc(S(=O)(=O)N3CCN(C4CCCCC4)CC3)ccc21
  nt	nt	5	nt	-6
70. Cn1c(C(=O)N2CCN(c3ccccn3)CC2)cc2c(=O)n(C)c3ccccc3c21
  nt	nt	-2	nt	-4
71. C[N+]1=C2CCCCCN2C(O)(c2ccccc2)C1 (centres undefined)
  i	i	-8	i	-13
72. CC1CN(C(=O)c2cc3c(=O)n4ccccc4nc3s2)CC(C)O1 (centres undefined)
  nt	nt	-3	nt	-2
73. COC(=O)c1ccc2nc(NC(=O)CN3C(=O)CCC3=O)sc2c1
  nt	nt	-3	nt	0
74. Cc1cccc(-n2ccnc2SCC(=O)Nc2nccs2)c1
  nt	nt	-1	nt	-6
75. O=C(c1ccco1)N1CCN=C1SCc1ccccc1F
  nt	nt	-7	nt	4
76. O=C(Oc1cccc(Br)c1)c1cccnc1
  nt	nt	3	nt	-5
77. Cc1nc2cc(Cl)c(Cl)cc2nc1C
  nt	nt	-4	nt	-8
78. O=c1c(F)cn(C2CCCO2)c(=O)n1Cc1c(F)cccc1Cl (centres undefined)
  i	i	-7	i	-7
79. CCOC(=O)N1CCN(C(=O)COc2ccc3c(c2)C(=O)CC2(CCN(C(C)=O)CC2)O3)CC1
  nt	nt	-2	nt	-4
80. CCS(=O)(=O)N1CCC(C(=O)NCCCN2CCCCCC2)CC1
  nt	nt	-6	nt	3
81. CC(C)(C)C1CCc2c(sc(NC(=O)c3cc(C4CC4)on3)c2C#N)C1 (centres undefined)
  nt	nt	-4	nt	4
82. CCOc1ccccc1N1CCN(C(=O)c2ccncc2)CC1
  i	i	4	i	-5
83. O=C(c1ccc(CS(=O)(=O)c2cccc(C(F)(F)F)c2)o1)N1CCN(c2ccccn2)CC1
  nt	nt	0	nt	1
84. COc1ccc(C(C(=O)OCCN(C)C)c2ccccc2)cc1 (centres undefined)
  nt	nt	6	nt	1
85. O=C(CN1CCOc2ccccc21)NCc1ccccc1
  nt	nt	2	nt	-4
86. COc1cccc(C(=O)N(CN2CCCC2=O)c2cccc(Cl)c2)c1
  nt	nt	5	nt	1
87. C=C(C)Cn1c(N2CC(C)CC(C)C2)nc2c1c(=O)[nH]c(=O)n2C (centres undefined)
  i	i	0	i	2
88. COc1ccc(-c2nnn(CCc3nn[nH]n3)n2)cc1OC
  i	i	-5	i	-5
89. O=C1CCc2cc(S(=O)(=O)NC(Cc3ccccc3)C(=O)NC3CCCC3)ccc2N1 (centres undefined)
  nt	nt	-2	nt	-3
90. CC(C)C(C(=O)Nc1ccc2c(c1)OCO2)N1C(=O)c2ccccc2C1=O (centres undefined)
  i	i	-2	i	2
91. CCCOc1ccc(C2c3c(oc4cc(C)c(C)cc4c3=O)C(=O)N2CCCN(C)C)cc1OCC (centres undefined)
  nt	nt	2	nt	1
92. COc1nc2ccc(C)cc2cc1-c1noc(-c2cccnc2)n1
  i	i	0	i	-1
93. COc1ccc(OC)c(NC(=O)Nc2nnc(N3CCC(C)CC3)s2)c1
  nt	nt	-4	nt	-2
94. CC(=O)N1CCc2cc(S(=O)(=O)CCC(=O)Nc3c(C)n(C)n(-c4ccccc4)c3=O)ccc21
  nt	nt	1	nt	-2
95. COc1ccccc1S(=O)(=O)Cc1ccc(C(=O)NCc2cccs2)o1
  nt	nt	1	nt	-4
96. CCCCc1c(O)nc(SCCN(C)C)n(-c2ccccc2)c1=O
  i	i	-4	i	-9
97. CC(O)c1n(C)c(Cl)c[n+]1C (centres undefined)
  i	i	4	i	0
98. C=CCN(C(=O)CSc1nc2[nH]ncc2c(=O)n1-c1ccccc1OC)c1ccccc1
  nt	nt	-2	nt	4
